Compound activity (PubChem BioAssay)
GIRK2 act: activators of human GIRK2 potassium channels | HEK293-GIRK2 thallium flux, Thallos fluorescence | AID 1259325 | hit rate 0.05% among 63,000 | calls only for hits at 25 µM;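 active = among the strongest 0.2% of first-round signals and kept after retests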;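 note: first round at about 10 µM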
Target sequence (P48051 whole entry, looked up): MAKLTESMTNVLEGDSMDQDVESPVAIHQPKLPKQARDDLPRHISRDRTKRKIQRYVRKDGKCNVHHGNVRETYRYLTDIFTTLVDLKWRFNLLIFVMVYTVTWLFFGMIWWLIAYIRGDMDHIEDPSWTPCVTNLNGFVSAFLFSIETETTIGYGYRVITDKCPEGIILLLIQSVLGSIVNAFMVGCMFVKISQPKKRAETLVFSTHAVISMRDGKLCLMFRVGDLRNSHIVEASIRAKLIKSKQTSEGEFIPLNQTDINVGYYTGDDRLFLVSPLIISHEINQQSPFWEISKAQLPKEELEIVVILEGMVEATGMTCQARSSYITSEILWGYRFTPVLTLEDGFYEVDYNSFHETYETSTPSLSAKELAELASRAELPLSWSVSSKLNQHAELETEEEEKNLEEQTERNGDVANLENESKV
Calls only; i = inactive. Not all compounds are listed, so the mix of outcomes need not match the whole.

cpd	SMILES	GIRK2 act
1	Cc1cccc(N(C)C(=O)Cn2cccc(S(=O)(=O)N3CCC(C)CC3)c2=O)c1	i
2	CC(C(=O)Nc1cc(Cl)ccc1C#N)N1C(=O)c2ccccc2S1(=O)=O (stereo not given)	i
3	Nc1c(C(=O)c2cccc(OC[C@H](O)CO)c2)cnn1-c1ccc(F)cc1	i
4	CN(C(=O)Cn1cc(-c2nc(-c3ccc(Cl)cc3)no2)ccc1=O)c1ccccc1	i
5	O=C(CSCc1ccccc1)N1CCC2(CC1)OCCS2	i
6	COc1cccc(C(C)NC(=O)c2ccc(-n3nc(C)c(C)c3C)nc2)c1 (stereo not given)	i
7	O=C(Cn1nc2c(Oc3ccccc3)nccn2c1=O)Nc1ccc(Br)cc1	i
8	O=C(Nc1cccnc1)c1cc(S(=O)(=O)N2CCOCC2)ccc1O	i
9	COc1ccc(S(=O)(=O)Nc2ccc3c(c2)CCC(=O)N3)cc1	i
10	Cc1ccc(NCc2cc3cc4c(cc3n(CC(=O)Nc3ccccc3F)c2=O)OCCO4)cc1	i
11	O=C(CSc1nc(N2CCCCC2)nc2ccccc12)Nc1ccc2c(c1)OCO2	i
12	COc1ccc(NC(C)=O)cc1NC(=O)CCCSc1ccc(NC(=O)C2CC2)nn1	i
13	COc1cccc2cc(C(=O)N3CC(c4nc(-c5ncccn5)no4)C3)oc12	i
14	O=S(=O)(c1c(F)cccc1F)N1CCCC(c2nnc(C(F)(F)F)o2)C1 (stereo not given)	i
15	Cc1cn2c3c(=O)n(C/C=C/c4ccccc4)c(=O)n(C)c3nc2n1-c1ccccc1N	i
16	CCCCc1oc2ccccc2c1C(=O)c1cc(I)c(OCCN(CC)CC)c(I)c1	i
17	CC(O)Cn1c(NCc2ccccc2)nc2c1c(=O)n(C)c(=O)n2C (stereo not given)	i
18	O=S(=O)(c1ccc(Cl)s1)N1CCN(Cc2nc3ccccc3[nH]2)CC1	i
19	Cc1noc(C2CN(Cc3ccsc3)C2)n1	i
20	COc1ccc([C@@H]2CC(=O)c3c(O)cc(O)cc3O2)cc1O	i
21	CC(Cn1nc(-c2cccs2)ccc1=O)C(=O)Nc1ccccc1C(N)=O (stereo not given)	i
22	COCCCn1c(C(=O)NCCCn2ccnc2)cc2c(=O)n3ccccc3nc21	i
23	O=C(c1cc(=O)c2ccccc2o1)N1CCN(CCn2ccnc2-c2ccccc2)CC1	i
24	Cc1nc(-c2ccccc2)sc1CNC(=O)NC(C)C	i
25	O=C(Cn1cccc(S(=O)(=O)N2CCCCCC2)c1=O)Nc1cccc(Cl)c1	i
26	COc1ccc2c(CN3CCC4(CC3)OCCO4)cc(=O)oc2c1	i
27	O=C(NCC#CCOc1ccc2c(c1)OCO2)c1cnccn1	i
28	NS(=O)(=O)c1ccc(CCNC(=O)c2nnn(-c3ccccc3)c2-c2ccccn2)cc1	i
29	CN(C)c1ncc(NC(=O)COc2ccccc2)cn1	i
30	COc1cc(C)c(Cl)cc1S(=O)(=O)N1CCC(C)CC1	i
31	COc1cc(C)c(Cl)cc1S(=O)(=O)N1CCN=C1c1ccccc1	i
32	COc1ccc(CC(C)(O)CNC(=O)C2c3ccccc3Oc3ccccc32)cc1 (stereo not given)	i
33	CCOc1ccc2c(=O)c(-c3ccc(OC)c(OC)c3)c(C)oc2c1	i
34	Cc1ccc2c(c1)C=C(C(=O)Nc1ccc3oc(=O)ccc3c1)C=CO2	i
35	CCOC(=O)c1ccc(Nc2n[nH]c3nc4[nH]ncc4c(=O)n23)cc1	i
36	O=C(c1nnn(-c2ccc(Cl)cc2)c1-c1cccnc1)N1CCN(Cc2ccccc2)CC1	i
37	OC(CN1CCN(Cc2cc(F)ccc2F)CC1)c1ccco1 (stereo not given)	i
38	COc1ccc(-c2noc(-c3ccc(=O)n(CC(=O)c4ccccc4F)c3)n2)cc1F	i
39	COc1ccc(-n2nnc(-c3nc(-c4ccccc4OC)cs3)c2N)cc1	i
40	CCN(CC)c1nc2ccsc2c(=O)n1CCC(=O)NCc1ccc2c(c1)OCO2	i

Among those listed so far, these have an NH in an aromatic ring:
cpd	SMILES	GIRK2 act
18	O=S(=O)(c1ccc(Cl)s1)N1CCN(Cc2nc3ccccc3[nH]2)CC1	i
35	CCOC(=O)c1ccc(Nc2n[nH]c3nc4[nH]ncc4c(=O)n23)cc1	i

Next compounds.
cpd	SMILES	GIRK2 act
41	NS(=O)(=O)c1ccc(CCNC(=O)C2CCCN(c3ccc(-c4ccc(F)cc4)nn3)C2)cc1 (stereo not given)	i
42	CCN(CC)CCN1C(=O)C(=O)C(=C(O)c2ccncc2)C1c1cccc([N+](=O)[O-])c1 (stereo not given)	i
43	O=C(/C=C/c1ccc2c(c1)OCO2)c1ccc[nH]1	i
44	NC(=O)N/N=C1/CCCCC1c1nccc2ccccc12 (stereo not given)	i
45	CC(O)(CNC(=O)C(=O)NCCC1=CCCCC1)c1ccco1 (stereo not given)	i
46	CCCc1nnsc1C(=O)OC1CN(c2nc3c(C(F)(F)F)cccc3s2)C1	i
47	OC(COCC12CC3CC(CC(C3)C1)C2)CN1CCN(c2cccc(C(F)(F)F)c2)CC1 (stereo not given)	i
48	O=C(NC1CCS(=O)(=O)C1)c1cc2c(=O)n3ccccc3nc2n1Cc1ccccc1 (stereo not given)	i
49	O=C(c1ccc(Br)o1)N1CCN(Cc2nc(-c3ccc(F)cc3)cs2)CC1	i
50	CCOc1ccc(C(=O)NCc2n[nH]c(=O)c3ccccc23)cc1OCC	i
51	COc1ccc2nc(-n3nc(C)cc3NC(=O)C3COc4ccccc4O3)sc2c1 (stereo not given)	i
52	CCc1ccc(N2CC(c3nc4ccccc4n3Cc3ccccc3)CC2=O)cc1 (stereo not given)	i
53	COCC(=O)N1CCCc2ccc(NC(=O)/C=C/c3cccs3)cc21	i
54	Cc1ccc(-n2c(-c3ccccc3)nc(=S)[nH]c2=S)cc1	i
55	CCn1c(=O)[nH]c2c(C(=O)N3CCN(c4cc(Cl)ccc4C)CC3)snc2c1=O	i
56	O=C(c1ccncc1)N1CCc2cc(S(=O)(=O)N3CCOCC3)ccc21	i
57	COc1ccc(S(=O)(=O)NCCNC(=O)c2ccc(NC(C)=O)cc2)cc1OC	i
58	CCCC(=O)Nc1ccc2c(c1)CC(=O)N2	i
59	CSc1ccc2c(c1)sc(=NC(=O)c1cc(C)no1)n2C	i
60	CCN1C(=O)c2oc3ccccc3c(=O)c2C1c1cccc(OC)c1 (stereo not given)	i

Next part, starting with the last 2 of the part before.
cpd	SMILES	GIRK2 act
59	CSc1ccc2c(c1)sc(=NC(=O)c1cc(C)no1)n2C	i
60	CCN1C(=O)c2oc3ccccc3c(=O)c2C1c1cccc(OC)c1 (stereo not given)	i
61	CCc1ccc(S(=O)(=O)NCC#CCOc2ccc3c(c2)OCO3)s1	i
62	O=S(=O)(NCCNc1ccc(Nc2cccnc2)nn1)c1ccc(-c2ccccc2)cc1	i
63	Cc1ccc2nc(N(CCCn3ccnc3)C(=O)c3ccc(F)cc3)sc2c1	i
64	O=C(Nc1nc2c(s1)CN(C(=O)CSc1ccc(F)cc1)CC2)c1cccs1	i
65	COc1cccc(COc2cn(C)c(C(=O)NC(C)CCc3ccccc3)cc2=O)c1 (stereo not given)	i
66	O=C(Nc1ccc2c(c1)OCO2)c1cc(=O)c(OCc2ccc(F)cc2)c[nH]1	i
67	CCC(CC)c1nnc(NC(=O)c2cc3ccccc3o2)s1	i
68	O=C(c1cc2ccccc2oc1=O)N1CCN(Cc2nc(-c3ccco3)cs2)CC1	i
69	C=C(C(=O)O)[C@@H]1CC[C@@]2(C)C=CC(=O)[C@@H](CCC3(O)C(=O)C=C[C@]4(C)CC[C@@H](C(=C)C(=O)O)C[C@@H]34)[C@@H]2C1 (stereo not given in full)	i
70	COc1ccc(Cl)cc1C(=O)NCC1(c2cccs2)CCOCC1	i
71	COc1ccc([C@H]2Cc3cccc(O)c3C(=O)O2)cc1OC	i
72	Cc1cccn2c(=O)c3cc(S(=O)(=O)c4ccc(Cl)cc4)c(=N)n(C)c3nc12	i
73	O=C(CN1CCN(c2ccc3c(c2)OCO3)C1=O)Nc1nc2ccc(Cl)cc2s1	i
74	O=C(NCCC(O)c1cccc2ccccc12)c1ccc(F)cc1Cl (stereo not given)	i
75	CC(C)(C)c1ccc(C(=O)NCCNc2ccc(Nc3cccnc3)nn2)cc1	i
76	O=C(Nc1nsc(-c2ccc(Cl)cc2)n1)c1ccccc1F	i
77	NC(=O)Cc1csc(NC(=O)C(c2ccccc2)n2cccc2)n1 (stereo not given)	i
78	COc1ccc(NC(=O)Cn2ccn(-c3ccccc3)c(=O)c2=O)cc1	i
79	Cc1ccccc1-c1ccc(N2CCN(C(=O)Nc3cccs3)CC2)nn1	i
80	COc1cc2c(cc1OC)CN(CC(O)COc1ccc(C)cc1)CC2 (stereo not given)	i

Four compounds from above, arranged by formula weight, falling:
cpd	SMILES	GIRK2 act
64	O=C(Nc1nc2c(s1)CN(C(=O)CSc1ccc(F)cc1)CC2)c1cccs1	i
73	O=C(CN1CCN(c2ccc3c(c2)OCO3)C1=O)Nc1nc2ccc(Cl)cc2s1	i
68	O=C(c1cc2ccccc2oc1=O)N1CCN(Cc2nc(-c3ccco3)cs2)CC1	i
75	CC(C)(C)c1ccc(C(=O)NCCNc2ccc(Nc3cccnc3)nn2)cc1	i

Later entries:
cpd	SMILES	GIRK2 act
81	O=C1CCCN1CCCN1COc2ccc3c(=O)c(-c4ccccc4)coc3c2C1	i
82	Cc1cccc(NC(=O)NCc2sc(-c3ccccc3)nc2C)c1	i
83	COc1ccc(Cl)cc1NC(=O)COc1coc(CSc2nncn2C)cc1=O	i
84	CS(=O)(=O)N1CCN(C(=O)c2ccc(-n3cccc3)cc2)CC1	i
85	O=C(Nc1ccccc1)c1cc2c(=O)n3ccccc3nc2n1Cc1ccccc1	i
86	CC1CN(c2cccc(Cl)c2)c2nc3c(c(=O)n(CC(=O)O)c(=O)n3C)n2C1 (stereo not given)	i
87	COc1ccc(-c2nc(=S)c3c([nH]2)Oc2ccc(Cl)cc2C3)c(OC)c1OC	i
88	COc1cccc2sc(N(C)CC(=O)Nc3ccc(S(C)(=O)=O)cc3)nc12	i
89	CCOC(=O)c1c(NC(=O)C2CCN(S(=O)(=O)c3ccc(C)cc3)CC2)sc2c1CCCC2	i
90	COC(=O)Cn1c(=O)c2c(nc3n(-c4ccccc4OC)c(-c4ccccc4)cn23)n(C)c1=O	i
91	COc1cc(/C=N\Nc2ncnc3[nH]ncc23)ccc1O	i
92	Cc1cc(C)n(CC(=O)Nc2ccccc2F)c(=O)c1-c1nc(-c2ccc(Br)cc2)no1	i
93	CCc1nnc(NC(=O)c2c3c(nn2C2CCS(=O)(=O)C2)CCC3)s1 (stereo not given)	i
94	CCOc1ccccc1C(=O)Nc1nonc1-c1ccc(Cl)cc1	i
95	COc1ccccc1NC(=O)CSc1nc2c(sc(=S)n2-c2ccccc2C)c(=O)[nH]1	i
96	CN1CCC(N(C)C(=O)CCCSc2ccc(NC(=O)c3cccs3)nn2)CC1	i
97	CC(C)NC(=O)c1ccc(-c2cc(C(F)(F)F)ccc2Cl)o1	i
98	Cc1cc(NC(=O)c2cc3ccccc3o2)n(-c2nc(-c3ccccc3)cs2)n1	i
99	CCOCCn1c(-n2nc(C)cc2C)nc2c1c(=O)n(Cc1ccc(F)cc1)c(=O)n2C	i
100	C=CCCC(=O)NCC#CCOc1ccc2c(c1)OCO2	i
101	CCc1nc2oc3cc(OC)ccc3c(=O)c2c(=O)n1CCc1ccccc1	i
102	COc1cccc2sc(N(C)CC(=O)N3CCN(c4ncccn4)CC3)nc12	i
103	CCOc1cn(C)c(C(=O)Nc2cc(C)cc(C)c2)cc1=O	i
104	O=C(Nc1ccccc1Cl)Nc1ccccc1NC(=O)c1ccccc1Cl	i
105	O=C(Cc1cc(=O)[nH]c(SCc2ccccc2F)n1)Nc1ccc(F)c(Cl)c1	i
106	Cc1ccc(C)c2sc(N(CCCn3ccnc3)C(=O)COc3ccccc3)nc12	i
107	CCN1CCc2nc(-c3ccc(F)cc3)n(CC(=O)Nc3c(C)cccc3C)c(=O)c2C1	i
108	CN(CC(=O)NCC(F)(F)F)C(=O)c1ccc(=O)[nH]c1	i
109	C=Cc1ccc(CSc2nc3c(c(=O)[nH]2)CN(CCC)CC3)cc1	i
110	COc1cn2c(cc1=O)C(=O)N(CCNC(=O)c1cccs1)CC2	i
111	O=C(Cc1csc(Nc2ncccn2)n1)NCCC1=CCCCC1	i
112	Cc1c(Cl)cccc1NC(=O)Cn1c(=O)nc(-c2ccccc2)c2ccccc21	i
113	Cn1c(NCCCO)nc2c1c(=O)n(Cc1ccccc1)c(=O)n2C	i
114	Cc1cc(CNC(=O)Nc2ccc(C(C)(C)C)cc2)c(C)o1	i
115	COc1ccc(C2C(C(=O)c3ccco3)=C(O)C(=O)N2c2cc(C)on2)cc1OC (stereo not given)	i
116	CCOc1ccc(NC(=O)c2ccc(Cl)cc2)c([N+](=O)[O-])c1	i
117	CCOc1ccc(CC(=O)Oc2c(S(=O)(=O)c3ccccc3)c(C)nn2C(C)(C)C)cc1	i
118	O=C(CSc1nnc(N2CCN(C(=O)Cc3noc4ccccc34)CC2)s1)Nc1ccccc1	i
119	COc1ccccc1-c1nc(C#N)c(N2CCN(C(=O)c3ccccc3C)CC2)o1	i
120	COc1ccc(S(=O)(=O)N(Cc2ccsc2)Cc2ccco2)c(C)c1	i
121	O=C(NCc1cnn2ccccc12)c1ccccc1Br	i
122	CC(O)CN1CCN(Cc2cccnc2)CC1 (stereo not given)	i
123	O=C(CCCSc1ccccc1)Nc1nc(-c2cccnc2)cs1	i
124	COc1cccc(C(=O)Nc2cc3c4c(c2)CCN4C(=O)CC3)c1	i
125	O=C(/C=C/c1ccccc1)N(Cc1ccsc1)Cc1ccccn1	i
126	Cn1nc(-c2ccccc2)cc1C(=O)Nc1ccc2c(c1)CCC(=O)N2	i
127	Cc1nc(C)c(-c2cc(C(=O)NCc3cccnc3)n[nH]2)s1	i
128	COc1ccc(C(=O)/C=C/c2ccc(O)cc2)cc1	i
129	CCOc1ccc(-n2nnnc2CN2CCN(C(=O)NCc3cccs3)CC2)cc1	i
130	O=C(Cn1cccc(-c2nc(-c3ccc(Cl)cc3)no2)c1=O)NCc1ccc(F)cc1	i
